Autofluor counter = counter-screen for toxin protease inhibitors: compound fluorescence; compound autofluorescence counterscreen, microsphere flow cytometry; active compounds read high; fluorescence intensity (test concentration not listed); hit rate 3.1% among 360,000; AID 624483;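 active = at least 3 SD above the mean of all compounds, about 16000 in these data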;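 also: 100 nL of 1 mM stock went into each well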
RN4220 kill = kills Staphylococcus aureus RN4220 | S. aureus RN4220 growth, OD600, 16 h | hit rate 0.33% among 330,000 | inhibition, % (no concentration beside the values);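 active = z-score of -3 or lower and OD600 up to 0.18 on both plates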;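 also: plate controls were untreated cells for no effect and reference antibiotic for full effect; stock transfer was 100 nL into about 80 µL; one replicate is shown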
Sa ugtP lethal = compounds lethal to S. aureus RN4220 ugtP deletion mutant; OD600 growth, 16 h; some inactives read as strong as hits; growth inhibition, % (no concentration beside the values); hit rate 0.54% among 330,000;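 active = z-score under -3 and OD600 up to 0.15 on both plates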;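 also: plate controls were untreated wells for no effect and antibiotic for full effect; wells of about 80 µL received 100 nL stock; the first replicate is given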
BJeLR viability = BJeLR cell viability loss; BJeLR (HRASV12) viability, CellTiter-Glo ATP luminescence, 48 h; reference of the scale not given here; hit rate 0.17% among 300,000; inhibition, % (no concentration beside the values);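 active = replicate mean above 50%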;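 also: 50 nL library stock added to about 25 µL; numbers are from one replicate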
PrP UTR inh = inhibition of PrP 5' UTR reporter expression; AID 488862; inhibition, % (test concentration not listed); cell-based PrP 5' UTR mRNA reporter, plate reader; hit rate 0.35% among 340,000;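 active = every replicate at 50% or more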;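 also: 0 = median of the neutral control wells; tested in H4 reporter cells; numbers are from one replicate; inactives centre near -14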
Mtb hypoxia inh = reduces hypoxia-regulated biosensor signal in M. tuberculosis | M. tuberculosis hypoxia-regulated fluorescent reporter, fluorescence | fluorescence inhibition, % (concentration not given with the values) | hit rate 0.1% among 300,000;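 active = 35 to 45% if threefold the growth effect, above 45% if 1.5-fold the growth effect; inactive = the rest, general growth blockers included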;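 also: wells of about 50 µL received 100 nL stock; 0% = vehicle wells and 100% = reference inhibitor wells; whole bacteria with a GFP reporter of the hypoxia response; strong numbers were not always called active; many hits fall short of the cut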
Mtb hypoxia inh growth = second read-out of Mtb hypoxia inh, no call of its own (marks repeat the call); growth inhibition, %; measured here: M. tuberculosis growth (absorbance);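 0% = vehicle and 100% = reference antibiotic; read after six days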
An asterisk follows results filed as active; nt = no result given.

SMILES	Autofluor counter	RN4220 kill	Sa ugtP lethal	BJeLR viability	PrP UTR inh	Mtb hypoxia inh	Mtb hypoxia inh growth
Brc1ccccc1C1Nc2cccc3cccc(c23)N1	2882	0.6	-5	-8	-10	1	1
Oc1ccccc1-c1cc(-c2ccccc2)n[nH]1	4047	-4.1	-18	nt	-61	11	5
COc1ccc(N(C)S(=O)(=O)c2cccc(C(=O)NC3CCC(C)CC3)c2)cc1 (stereo not given)	3701	-1.6	-7	-13	-12	-4	11
COc1ccc(OC)c(NC(=O)CSc2nnc(-c3cnccn3)n2C)c1	5683	-0.5	-3	0	-14	0	3
O=C(Nc1ccc(S(=O)(=O)Nc2cnc3ccccc3n2)cc1)c1cc(F)c(F)cc1Cl	4487	-0.8	23	2	-8	6	7
O=C(Cn1cc[n+](Cc2ccccc2)c1)c1ccc([N+](=O)[O-])cc1	3131	-0.9	6	0	-11	4	11
O=C(/C=C/c1c(F)cccc1Cl)N1CCOCC1	6302	2.8	6	1	-34	6	9
COCCNC(=O)CC(c1ccccc1)c1ccccc1	3130	7.9	3	-2	2	8	5
O=[N+]([O-])c1ccccc1/C=N\N1CCN(Cc2ccccc2Cl)CC1	3758	nt	nt	10	-30	nt	nt
Cn1c(C(=O)OC(C(=O)NC2CCCC2)c2cccnc2)cc2sccc21 (stereo not given)	6037	-0.2	4	4	0	1	15
CCCNC(=O)C(Cc1ccc(C(F)(F)F)cc1)NC(=O)c1ccc(C#N)cc1 (stereo not given)	3846	7.5	-9	nt	-17	3	9
Cc1nc(-c2cccc(NC(=O)c3cc4cc(Br)ccc4oc3=O)c2)cs1	2117	12	-7	0	-15	2	2

Reprinted from the part before: 6 compounds, then new ones.
SMILES	Autofluor counter	RN4220 kill	Sa ugtP lethal	BJeLR viability	PrP UTR inh	Mtb hypoxia inh	Mtb hypoxia inh growth
O=C(/C=C/c1c(F)cccc1Cl)N1CCOCC1	6302	2.8	6	1	-34	6	9
COCCNC(=O)CC(c1ccccc1)c1ccccc1	3130	7.9	3	-2	2	8	5
O=[N+]([O-])c1ccccc1/C=N\N1CCN(Cc2ccccc2Cl)CC1	3758	nt	nt	10	-30	nt	nt
Cn1c(C(=O)OC(C(=O)NC2CCCC2)c2cccnc2)cc2sccc21 (stereo not given)	6037	-0.2	4	4	0	1	15
CCCNC(=O)C(Cc1ccc(C(F)(F)F)cc1)NC(=O)c1ccc(C#N)cc1 (stereo not given)	3846	7.5	-9	nt	-17	3	9
Cc1nc(-c2cccc(NC(=O)c3cc4cc(Br)ccc4oc3=O)c2)cs1	2117	12	-7	0	-15	2	2
CCC1(C)Cc2ccccc2-c2nc(NCCCO)[nH]c(=O)c21 (stereo not given)	4557	8.6	9	7	-32	15	7
COC(=O)CC(c1ccc(F)cc1)n1c(C)ccc1C (stereo not given)	4573	9.4	5	-2	-17	11	-4
O=C(O)CCCCCNS(=O)(=O)/C=C/c1ccccc1	5401	2.0	6	-1	-17	9	3
CC(Sc1ccc(S(=O)(=O)N2CCCC2)cn1)C(N)=O (stereo not given)	3548	4.7	7	nt	-10	0	8
Clc1ccc(N/N=C/c2cccnc2)cc1	2621	nt	nt	1	-37	nt	nt
O=C(N/C=C/c1ccco1)Nc1cccc(Cl)c1	nt	-2.3	-12	3	nt	-3	-8
CC(NC(=O)COC(=O)/C=C/c1ccc2c(c1)OCO2)c1ccccc1 (stereo not given)	3021	-1.9	2	nt	-13	-3	-4
Cc1c(Nc2ccc3nonc3c2[N+](=O)[O-])c(=O)n(-c2ccccc2)n1C	2734	8.7	6	-4	-25	5	-9
CC(C(=O)NCCC1=CCCCC1)c1ccc([N+](=O)[O-])cc1 (stereo not given)	2509	5.7	7	-4	-20	17	0
CN1C(C(=O)NCC2CC2)CC2Cn3c(nc4cc(Cl)c(Cl)cc43)C21 (stereo not given)	3688	2.9	-2	-1	-13	6	9
Cc1nc(NC(=S)NC(=O)c2ccccc2)sc1C	5123	1.5	16	-1	-104	13	2
CC(C)c1ccc(N(CC(=O)NCc2ccco2)C(=O)CCC(=O)Nc2nccs2)cc1	3652	-4.4	3	0	-12	11	4
Cc1ccc(S(=O)(=O)N(C)C)cc1NC(=O)C(C)OC(=O)c1ccc2c(=O)n3c(nc2c1)CCC3 (stereo not given)	8595	3.4	3	nt	-13	-1	-1
CCOC(=O)C1(CCCc2ccccc2)CCN(Cc2nccn2CC)CC1	2380	4.7	-4	1	-15	8	10
O=C1CN=C(c2ccccc2)c2cc(Br)ccc2N1	3954	6.3	1	8	-13	7	-5
CCOc1ccccc1C(=O)NC1CC2CCCC(C1)N2Cc1ccccc1 (stereo not given)	4190	1.1	-1	0	-1	4	5
O=C(C1CCN(S(=O)(=O)c2cc(Cl)ccc2Cl)CC1)N1CCOCC1	5086	4.4	5	-9	-5	4	-3
CCOC(=O)Cc1csc(NC(=O)CN2CCOCC2)n1	nt	4.7	7	1	-10	4	-8
CCOC(=O)C(C)Oc1cccc2c(=O)n(CC(=O)N3CCN(C(=O)OCC)CC3)ccc12 (stereo not given)	5233	0.8	-1	3	-5	0	3
Cc1cc(NC(=O)CCC(=O)N(CC(=O)NC2CCCC2)Cc2cccs2)no1	2517	2.3	2	3	8	10	2
CCN(CC)CC#CCOC(c1ccccc1)c1ccccc1	4230	1.5	3	-14	-22	0	-5
COc1ccc(CCNC(=O)CSCc2c(F)cccc2Cl)cc1OC	4134	0.6	3	nt	-31	7	5
CCCCCOc1ccc(N2C(=O)CC(N(O)c3ccccc3)C2=O)cc1 (stereo not given)	3285	-0.3	-4	-5	-11	-1	-5
O=C(O)C1C2C=CC(C2)C1C(=O)Nc1nccs1 (stereo not given)	4523	1.6	-3	-3	-7	-2	6
O=C(Nc1ccc2c(c1)OCO2)C1CCN(Cc2cc3c(cc2O)OCO3)CC1	3840	-0.8	2	-2	-18	-8	-9
Cc1cc(C)nc(SCCC(=O)N2CCOCC2)n1	5469	0.3	7	-5	-27	nt	nt
COC(=O)c1sccc1NC(=O)Nc1cccc(OC)c1	6022	2.4	2	-6	-11	7	-7
O=P(COCCOCP(=O)(c1ccccc1)c1ccccc1)(c1ccccc1)c1ccccc1	2464	-0.5	7	10	-10	4	2
COc1cccc(CN2CCC(Oc3ccc(C(=O)NCc4ccccn4)cc3)CC2)c1	6866	0.0	2	13	-3	8	7
CC(NC(=O)c1ccccc1)c1nc2ccccc2n1Cc1ccccc1F (stereo not given)	nt	4.3	-4	-3	nt	9	5
CC12CN3CC(C)(CN(C1)C3c1ccc(Br)cc1O)C2 (stereo not given)	3571	3.7	-7	0	-3	nt	nt
CCN(C)c1ccc(C=Nn2nnnc2N)cc1	nt	1.2	-4	nt	nt	7	-1
CCOC(=O)c1cnc(Nc2nc3ccccc3o2)nc1CSc1nnc(C)s1	3978	2.5	-2	0	-42	21	3
Cc1cc(NC(=O)CN2C(=O)/C(=C/c3cccc(Br)c3)SC2=S)no1	4634	-3.6	-3	3	-24	0	4
CC(C)=CC(=O)OCC(=O)Nc1cccc([N+](=O)[O-])c1	2392	5.8	3	-5	-1	4	3
O=[N+]([O-])c1ccc(Cl)c(C=NN2CCN(Cc3ccc(Cl)cc3)CC2)c1	nt	5.4	-6	nt	nt	9	7

Arranged by heavy-atom count (highest first): part of the list above
SMILES	Autofluor counter	RN4220 kill	Sa ugtP lethal	BJeLR viability	PrP UTR inh	Mtb hypoxia inh	Mtb hypoxia inh growth
COc1cccc(CN2CCC(Oc3ccc(C(=O)NCc4ccccn4)cc3)CC2)c1	6866	0.0	2	13	-3	8	7
CC(NC(=O)c1ccccc1)c1nc2ccccc2n1Cc1ccccc1F (stereo not given)	nt	4.3	-4	-3	nt	9	5
CC12CN3CC(C)(CN(C1)C3c1ccc(Br)cc1O)C2 (stereo not given)	3571	3.7	-7	0	-3	nt	nt

The results go on:
SMILES	Autofluor counter	RN4220 kill	Sa ugtP lethal	BJeLR viability	PrP UTR inh	Mtb hypoxia inh	Mtb hypoxia inh growth
CC(=O)Nc1ccc(SCC(C)CN2CCC(C(C)(C)C)CCC2=O)cc1 (stereo not given)	nt	4.4	-15	nt	nt	2	5
CCC(C)[C@H](NC(=O)NCc1ccco1)C(=O)OC (stereo not given in full)	3239	3.9	8	-5	-3	1	4
C[C@H](N)C(=O)N1CCC(C(=O)N[C@@H](Cc2ccccc2)C(=O)Nc2ccc(F)cc2)CC1	4203	7.3	-8	-2	17	nt	nt
O=C(COC(=O)c1n[nH]c(=O)c2ccccc12)Nc1ccccc1F	3495	2.4	7	nt	-20	4	1
CCc1cc2ccccc2nc1Cl	4135	10	4	2	-23	3	1
CCOC(=O)c1c(NC(=O)CC2Nc3ccccc3NC2=O)sc(C)c1C (stereo not given)	8675	15	-7	11	1	-1	1
O=C(O)c1ccccc1CSC1=NCCS1	4081	6.5	7	6	-10	12	5
CNC(=O)N(O)C1N(/N=C/c2cccs2)C(=S)SC1(C)C (stereo not given)	6382	nt	nt	-7	-6	nt	nt
Cc1occc1C(=O)NCCc1ccc(Cl)cc1	20471*	-0.9	2	-4	-35	10	7
Cc1ccccc1NC1=NCC(C)S1 (stereo not given)	9254	5.1	5	4	-20	-6	-6
COc1ccc2sc(-c3ccc(N(C)C)cc3)c(-c3cnc(OC)nc3)c2c1	3811	1.7	-33	nt	-23	6	13
CC(C)C[C@@H](C(=O)NC1CC1)N1C(=O)N2CCc3c([nH]c4ccccc34)[C@@]2(C)C1=O	4435	-0.1	9	-10	7	nt	nt
O=C(N/N=C/c1ccc2c(c1)OCO2)c1ccc2c(c1)OCO2	5502	nt	nt	-8	-51	nt	nt
NS(=O)(=O)c1ccc(CCNC2CC(=O)N(Cc3ccccc3)C2=O)cc1 (stereo not given)	10845	4.7	1	-5	-15	14	5
Brc1ccc(-[n+]2c(-c3ccccc3)cc(-c3ccccc3)cc2-c2ccccc2)cc1	3827	71	77	17	-15	nt	nt
COc1ccccc1C(=O)Nc1ccc(OCC(=O)N2CCCCC2C)cc1 (stereo not given)	4162	3.9	3	nt	-12	1	3
C=CCC12C=C(OC)C(=O)OC(OC)(C1O)[C@H](c1ccc3c(c1)OCO3)[C@H]2C (stereo not given in full)	4103	1.4	-4	-12	-22	nt	nt
COc1ccc(NC(=O)c2ccc(S(=O)(=O)N(C)C)cc2)cc1	3406	6.6	-1	9	-22	10	-4
O=C(NCC1CCCO1)C1CC(c2ccccc2Cl)=NO1 (stereo not given)	21967*	-4.0	-6	3	3	5	9
O=c1[nH]c(C2CCCN(S(=O)(=O)c3ccc(F)cc3)C2)nc2c1nnn2Cc1ccccc1 (stereo not given)	21368*	5.1	-8	-16	-3	-1	8
O=C(NCCc1cccs1)C1CC(c2ccc([N+](=O)[O-])cc2)=NO1 (stereo not given)	4044	7.2	5	6	-24	10	14
CN(C)S(=O)(=O)c1cccc(NC(=O)Cc2ccc(-c3ccccc3)cc2)c1	6556	-8.5	-4	1	5	6	4
COc1cc(COc2ccc(-c3nnco3)cc2)ccc1OC(F)F	3697	2.9	5	-4	9	0	0
O=C(O)C1=C[C@@H](c2ccccc2)C[C@@H](OCCCCO)O1	2997	nt	nt	-5	-7	nt	nt
Cc1ccc(NC(=O)COC(=O)CCC(=O)c2ccc(C(C)(C)C)cc2)c([N+](=O)[O-])c1	2412	8.2	12	-4	-12	4	4
CCc1ccc2c(c1)C(c1cccs1)=NNC(c1cccnc1)=N2	19854*	-1.7	-8	3	-10	9	11
O=C(NN=Cc1c(F)c(F)c(F)c(F)c1F)c1ccc(-c2ccccc2)cc1	nt	2.9	3	nt	nt	16	-24
Cc1cc(C)c(S(=O)(=O)n2ccc3ccccc32)c(C)c1	2017	-4.8	72	-29	-13	5	8
O=C(COC(=O)c1ccc(Cl)nc1)Nc1ccc2c(c1)OCO2	3122	8.4	5	9	-30	5	8
O=C(COC(=O)/C=C/c1ccc(Cl)cc1)NC1CCCCCC1	7840	2.1	4	nt	-25	0	5
Cc1ccc2[nH]c3c(c2c1)CCCC3NCCO (stereo not given)	4189	1.3	6	-3	-21	20	3
CC(NS(=O)(=O)c1ccc(OCC(=O)Nc2cccc([N+](=O)[O-])c2)cc1)c1ccccc1 (stereo not given)	2433	5.3	1	nt	-21	-1	17
COC(=O)CSc1nnc(CSc2nc(C)cc(C)n2)o1	2261	3.0	-2	-4	-4	7	1
Cc1noc(C)c1N=Nc1ccc(Br)cc1C(=O)O	3187	2.6	-1	0	-8	11	-5
O=C(CN1C(=O)NC2(CCCCC2)C1=O)NCCc1c[nH]c2ccccc12	4804	0.0	1	6	-15	5	12
CN1C(=O)Cc2cc(S(=O)(=O)NCc3cccs3)ccc21	4713	6.3	-4	-7	-18	10	5

Random draw from the library. Share with any hit: about 4%.
